TRPML1 inh – qHTS for Inhibitors of the Human Mucolipin Transient Receptor Potential 1 (TRPML1); Mucolipin-1 (Homo sapiens), Q9GZU1; TRPML1-inducible cells, Ca2+ dye fluorescence, FDSS; hits give low values; inhibition of EC80 agonist-evoked calcium signal; activity change, negative = inhibition, % (no concentration beside the values); actives 0.02% (n = 390,000); in the data active means activity change below about -50%; inconclusive means about -30% to -50%; inactive means above about -30%;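 further: stimulus is agonist 54-4 at its EC80 concentration; on the % scale 0 is the no-effect control and ±100 the full control effect; compound concentration not given in the record; the text of the record puts the active cut at -80%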
Target sequence (Q9GZU1 whole entry, looked up): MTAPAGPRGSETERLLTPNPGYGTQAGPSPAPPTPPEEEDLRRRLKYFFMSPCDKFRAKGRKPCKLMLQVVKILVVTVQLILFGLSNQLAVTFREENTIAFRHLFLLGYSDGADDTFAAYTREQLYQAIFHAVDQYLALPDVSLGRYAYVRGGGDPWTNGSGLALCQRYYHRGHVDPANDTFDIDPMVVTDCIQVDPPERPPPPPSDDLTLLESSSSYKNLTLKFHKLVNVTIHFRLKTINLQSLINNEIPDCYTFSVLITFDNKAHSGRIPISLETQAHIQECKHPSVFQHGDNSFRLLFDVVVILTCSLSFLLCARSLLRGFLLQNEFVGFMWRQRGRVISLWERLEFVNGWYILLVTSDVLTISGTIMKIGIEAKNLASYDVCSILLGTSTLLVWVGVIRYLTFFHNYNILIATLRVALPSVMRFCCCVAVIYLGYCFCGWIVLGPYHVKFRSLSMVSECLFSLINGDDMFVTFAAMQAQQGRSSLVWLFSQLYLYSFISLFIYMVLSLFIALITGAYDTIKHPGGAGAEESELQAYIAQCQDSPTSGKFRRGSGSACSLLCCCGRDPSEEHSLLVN
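TRPML1-DL cells, Tet-induced overnight (~16 h, 37 °C) at 1,500 cells/well, were loaded with Ca8 no-wash dye plus quencher for 45-90 min at room temperature. Compounds were pinned during FDSS kinetic reading; agonist 54-4 at EC80 (4 uM final) then added.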
TRPML1 ag – qHTS for Agonists of the Human Mucolipin Transient Receptor Potential 1 (TRPML1); TRPML1-expressing cells, Ca2+ dye fluorescence, FDSS; host cell line not named in the record; reference of the full effect not given here; activation, % (no concentration beside the values); actives 0.12% (n = 410,000); in the data active = activation above about 50%; inconclusive = about 30% to 50%; inactive = below about 30%; further: 0% is about no effect; the text of the record puts the active cut at 80%
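Calcium fluorescence on an FDSS kinetic reader gave the read-out. Tet-induced TRPML1-DL cells were plated overnight, dye-loaded (Ca8 with quencher, 45-90 min, room temperature, dark), then read 110 s after compound addition, and again 110 s after 4uM final 54-4 (EC80).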
D2 potentiator – Beta-Arrestin HTS for Positive Allosteric Modulators of the Human D2 Dopamine Receptor: Potentiators | D(2) dopamine receptor (Homo sapiens), P14416 | DiscoveRx D2 beta-arrestin cells, luminescence, 90 min; 100% = 57 uM dopamine signal | potentiation, % (concentration not given with the values) | actives 0.23% (n = 360,000); active = potentiation of 50% or more; inconclusive = 30% to 50%; inactive = 30% or less;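 further: compound concentration not given in the record; tested on top of an EC20 dose of dopamine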
Target sequence (P14416 whole entry, looked up): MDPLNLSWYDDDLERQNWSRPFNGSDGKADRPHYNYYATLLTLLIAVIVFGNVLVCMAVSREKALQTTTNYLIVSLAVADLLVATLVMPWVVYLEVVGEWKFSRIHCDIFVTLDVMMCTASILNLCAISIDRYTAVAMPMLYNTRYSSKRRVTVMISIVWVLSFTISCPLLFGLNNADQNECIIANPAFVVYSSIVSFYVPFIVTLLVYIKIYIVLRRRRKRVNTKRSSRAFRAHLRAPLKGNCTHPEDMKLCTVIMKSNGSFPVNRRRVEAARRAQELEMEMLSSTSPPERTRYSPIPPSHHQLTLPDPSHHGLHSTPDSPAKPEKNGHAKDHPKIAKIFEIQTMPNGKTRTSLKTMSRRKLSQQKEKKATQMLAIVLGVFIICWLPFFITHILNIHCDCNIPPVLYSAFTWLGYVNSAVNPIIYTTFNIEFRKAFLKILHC
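PathHunter beta-arrestin assay in DiscoveRx D2 cells. Compounds were added with an EC20 of dopamine (50 nM final) for 90 min at 37 deg C. Luminescence was read 1 h after detection reagent, with 57 uM dopamine as the EC100 control.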
PINK1 expr mod – A Quantitative High throughput Screen to Identify Chemical Modulators of PINK1 Expression; PINK1 immunofluorescence, high-content cytometry, 24 h; Potency, µM (doses to about 76.6 µM), for inactives: top-dose activation (PINK1 increase), hits mostly activators; actives 0.2% (n = 410,000); AID 624263, 2012; active = well fitted activation curve with a large enough effect; inconclusive = small, poorly fitted or top-dose-only effect; inactive = flat fitted curve, though single readings scatter; cell line not stated here;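 further: potency means the concentration at half of the fitted maximal effect; % of control where 0% means no effect; nearly all actives have a fitted effect of over 65% in size; a mitochondrial uncoupler was the plate control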
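Stable cell line treated 24 h with compounds at 5 concentrations (CCCP controls), then fixed and immunostained for PINK1 plus nuclear and cell stains; PINK1 immunofluorescence quantified by laser-scanning microplate cytometry.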
D2 agonist – Beta-Arrestin HTS for Positive Allosteric Modulators of the Human D2 Dopamine Receptor: Agonists | activation, % (concentration not given with the values) | AID 624465, 2012 | D(2) dopamine receptor (Homo sapiens), P14416 | DiscoveRx PathHunter D2 beta-arrestin, luminescence, 90 min; 100% = 57 uM dopamine signal | actives 0.084% (n = 360,000); in the data active = activation above about 40%; inconclusive = about 15% to 40%; inactive = below about 15%; further: compound concentration not given in the record; the text of the record calls up to 30% inactive
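DiscoveRx PathHunter D2 beta-arrestin cells (2,100/well) attached overnight, then compound-stimulated 90 min at 37 C in HBSS/10 mM HEPES/0.1% Tween-20 buffer; beta-galactosidase complementation read by luminescence after 1 h at ambient temperature. Dopamine 57 uM final (EC100) as control.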
Six1-Eya2 inh – qHTS Assay for Inhibitors of the Six1/Eya2 Interaction; AlphaScreen GST-Six1/His-Eya2 binding, biochemical; hits give low values; control for the full effect not named in the record; activity change, % (test concentration not listed); actives 0.56% (n = 360,000); AID 651725, 2012; in the data active = activity change below about -65%; inconclusive = about -30% to -65%; inactive = above about -30%; further: on the % scale 0 is the no-effect control and ±100 the full control effect; compound concentration not given in the record
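GST-Six1 + His-Eya2 (5X stock: 250/500 nM); Tris pH 8.0, 300 mM NaCl, 0.05% BSA, 0.02% Tween 20; GSH donor/Ni acceptor beads; 1 h 37 °C dark; AlphaScreen readout.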
Numbers without * were called inactive; nt = no result given; & = joins results of further samples; [ ] = remark or other dose.

SMILES | TRPML1 inh | TRPML1 ag | D2 potentiator | PINK1 expr mod | D2 agonist | Six1-Eya2 inh
Cc1ccccc1OCCCC(=O)Nc1nccs1 | 5 | -0.8 | -2 | 5.5%[38.3 µM] | 1.7 | -1
COc1ccccc1CNC(=O)CCN1C(=O)COc2ccc(C)cc21 | -1 | 0.7 | -21 | -1.3% | 0.1 | 0
COc1cccc(CSc2nc3n(n2)C(CC(C)C)C(C(=O)Nc2ccccc2C)=C(C)N3)c1 (stereo unspecified) | 3 | 0.7 | nt | 2.7% | nt | nt
CC1(C)Cc2nc3oc4c(=O)n(CC(=O)Nc5ccc(Cl)cc5)cnc4c3cc2CO1 | -10 | 0.1 | -12 | 11% | -1.5 | 9
C=CCn1c(CSc2nc3ccccc3s2)nnc1SCC(=O)NCc1ccccc1 | -19 | 1.2 | 0 | 5.2% | -5.1 | 15
COc1ccc(-c2csc(C)n2)cc1 | -3 | 2.8 | 19 | -4.1% | 0.1 | 1
CN(CC(=O)Nc1ccccc1N1CCOCC1)CC(=O)Nc1ccc(F)c(F)c1F | 3 | 0.6 | 2 | 4.5% | -0.9 | 2
C[C@H](CO)N1C[C@H](C)[C@H](CN(C)C(=O)C2CC2)OCc2cnnn2CCCC1=O | 6 | 0.0 | 6 | 0.2% | -9.5 | 1
CCCc1ccc(OCc2ccc(C(=O)Nc3cccc(C)n3)o2)c(OC)c1 | -24 | 2.9 | 0 | 5.2% | -1.9 | -2
CN(C(=O)c1ccc(NC(=O)Cc2cccc(NC(=O)C3CCCN(C(=O)C4CCCC4)C3)c2)cc1)C1CC1 (stereo unspecified) | -5 | -0.8 | nt | -0.2% | -1.2 | -1
COc1ccc(N2CCN(C(=O)c3cc(N4C(=O)C5C6CCC(C6)C5C4=O)ccc3Cl)CC2)cc1 (stereo unspecified) | 9 | -0.2 | 0 | 1.8% | 2.4 | -10
Cc1c(NC2(c3nnnn3-c3ccc(Br)cc3)CCCCC2)c(=O)n(-c2ccccc2)n1C | 20 | -0.6 | -6 | -1.7% | -0.2 | -2
COc1ccccc1CNC(=O)C(=O)NCC(c1ccco1)S(=O)(=O)c1ccc(F)cc1 (stereo unspecified) | 0 | 0.1 | nt | 0.1% | nt | nt
O=C(CSCc1nc2ccccc2[nH]1)Nc1ccc(Oc2ccccc2)cc1 | 11 | 1.5 | -2 | 6.0% | 1.7 | 0
Cc1cccc(-n2ncc(C(=O)N3CCN(c4ccc(Cl)cc4)CC3)c2C2CCN(C(=O)OC(C)(C)C)CC2)c1 | -18 | 51* | nt | 0.6% | nt | nt
CCCNC(=O)N1CCN(c2nc(C(C)C)c3c(c2C#N)CC(C)(C)OC3)CC1 | 36 | 1.6 | -5 | 3.3% | -0.2 | 3
CN(Cc1ccccc1)C(=O)C1CCCN(Cc2ccc(Cl)cc2)C1 (stereo unspecified) | 9 | 0.1 | -44 | -0.6% | -4.2 | 9
COc1ccccc1NC(=O)CSc1nc(-c2cccc(Cl)c2)nc2c1Cc1c(CO)cnc(C)c1O2 | 0 | 1.5 | nt | -1.3% | nt | nt
O=C(COc1ccccc1Cl)NCCCN1CCOCC1 | 4 | -1.3 | -7 | -1.7% | -1.4 | -1
CCn1c(=O)c(=O)[nH]c2cc(C(=O)NC3CCCC3)ccc21 | -4 | 0.7 | -11 | -1.4% | 2.0 | -5
COc1ccccc1OCCn1c(NC(=O)c2ccccc2)nc2ccccc21 | 25 | 0.0 | nt | -1.4% | nt | nt
Cc1cc(-c2nn(-c3ccccc3F)cc2CN2CCCC(CO)C2)c(C)s1 (stereo unspecified) | 21 | 7.3 | -20 | 3.8% | 0.7 | -5
Cc1cccc(C)c1NC(=O)C(c1ccccc1)N1CCN(C/C=C/c2ccccc2)CC1 (stereo unspecified) | nt | -0.4 | -13 | 9.4% | -6.1 | 2
Cc1ccc(NC(=O)CN2C(=O)CCc3cc(S(=O)(=O)N4CCCCC4)ccc32)cc1N(C)C | 16 | 2.1 | nt | 4.5% | nt | nt
Cc1ccc(OC/C(=N\O)C(C)(C)C)c([N+](=O)[O-])c1 | 5 | 2.6 | 4 | -0.1% | -0.6 | 8
Clc1ccccc1CN1CCSCC1 | -1 | 0.3 | -1 | 3.2% | -3.5 | -1
CC(NC(=O)c1ccc(Cl)cc1)c1nnc(SCC(=O)NC2=NCCS2)n1C (stereo unspecified) | 0 | 0.4 | -2 | 1.0% | 0.3 | -12
CC(C)OCCCNc1ncnc2sc3c(c12)CCCC3 | 40 | 2.1 | nt | 0.9% | nt | nt
COc1ccc(C(=O)CC(=O)c2ccc(F)cc2)cc1 | 6 | 2.5 | 0 | 3.5% | -1.8 | 5
COc1ccc(CNC(=O)c2cc(C)nc3ccccc23)cc1OC | -11 | 0.6 | 1 | 0.6% | 0.2 | 10

6 compounds picked at random from those above:
SMILES | TRPML1 inh | TRPML1 ag | D2 potentiator | PINK1 expr mod | D2 agonist | Six1-Eya2 inh
COc1ccccc1OCCn1c(NC(=O)c2ccccc2)nc2ccccc21 | 25 | 0.0 | nt | -1.4% | nt | nt
CC(NC(=O)c1ccc(Cl)cc1)c1nnc(SCC(=O)NC2=NCCS2)n1C (stereo unspecified) | 0 | 0.4 | -2 | 1.0% | 0.3 | -12
Cc1cccc(C)c1NC(=O)C(c1ccccc1)N1CCN(C/C=C/c2ccccc2)CC1 (stereo unspecified) | nt | -0.4 | -13 | 9.4% | -6.1 | 2
Cc1cc(-c2nn(-c3ccccc3F)cc2CN2CCCC(CO)C2)c(C)s1 (stereo unspecified) | 21 | 7.3 | -20 | 3.8% | 0.7 | -5
Clc1ccccc1CN1CCSCC1 | -1 | 0.3 | -1 | 3.2% | -3.5 | -1
Cc1ccc(NC(=O)CN2C(=O)CCc3cc(S(=O)(=O)N4CCCCC4)ccc32)cc1N(C)C | 16 | 2.1 | nt | 4.5% | nt | nt

The listing continues:
SMILES | TRPML1 inh | TRPML1 ag | D2 potentiator | PINK1 expr mod | D2 agonist | Six1-Eya2 inh
COC(=O)CSc1nc2cc(C)ccc2cc1C#N | 2 | 5.1 | -4 | 11% | -4.3 | 12
CCNc1ncnc2c1nnn2C | 8 | 0.1 | nt | 11% | nt | nt
CC(=O)c1ccc(NC(=O)NNS(=O)(=O)c2ccc([N+](=O)[O-])cc2)cc1 | 3 | 0.4 | -8 | -0.8% | 0.4 | 1
CCc1cc(C(=O)N2CCCC(CCC(=O)N3CCN(c4ccccn4)CC3)C2)no1 (stereo unspecified) | 3 | 0.7 | 1 | 0.1% | 0.5 | 0
Cn1ncc(Cl)c1C(=O)Nc1cccnc1 | -7 | -0.3 | -4 | -0.9% | -2.8 | -2
Cc1cccc(-n2nc3c(c2NC(=O)CCCl)CSC3)c1 | -9 | 0.0 | -1 | 2.2% | -0.8 | 1
Cc1c(NC(=O)CN2CC(C)OC(C)C2)c(=O)n(-c2ccccc2)n1C (stereo unspecified) | 12&-15 | -0.1&0.6 | -5&-2 | 0.1% | -0.2&1.0 | 9&9
COc1ccc(Cl)cc1S(=O)(=O)N1CCN(Cc2cccc(F)c2)CC1 | 17 | 0.2 | nt | -1.4% | nt | nt
CC(=O)Nc1ccc(NC(=O)COc2cc(C)cc3oc(=O)cc(C)c23)cc1 | 35 | -0.5 | 1 | -0.9% | -1.5 | 2
COc1ccc2nc(C)cc(Nc3ccc(Cl)c(Cl)c3)c2c1 | 34 | -0.6 | nt | 2.7% | nt | nt
O=S(=O)(Nc1ccc(-c2cnco2)cc1)c1ccccc1 | 10 | -1.0 | -16 | 2.0% | -4.3 | 2
Cc1cc(C)c(S(=O)(=O)N2CCCCC2)c(C)c1N(C)S(=O)(=O)c1ccc(Cl)cc1 | 65 | -0.2 | -5 | -0.8% | -4.0 | -8
CCOc1ccccc1CN1CCNC(=O)C1CC(=O)NCc1ccccn1 (stereo unspecified) | -15 | 0.6 | -11 | 0.0% | -4.1 | -19
O=C(CSc1nnc(Nc2ccccc2)s1)NCCN1C(=O)CSC1=O | 0 | 0.7 | -21 | 6.0% | -7.4 | 19
CCOC(=O)N1CCC(NC(=O)c2sc3nc4n(c(=O)c3c2C)CCCC4)CC1 | 2 | 3.4 | -8 | -3.6% | -1.2 | -1
CN(C(=O)CSc1nnc(-c2ccccc2F)o1)C1CCCCC1 | 15 | 0.8 | nt | -1.1% | nt | nt
CCN(CC)c1ccc(C2C(C(=O)OCCOC(C)C)=C(C)NC3=C2C(=O)CCC3)cc1 (stereo unspecified) | 7 | 0.2 | -25 | -0.7% | -6.0 | 0
COc1cc(/C=C(\C(=O)O)c2ccc(S(=O)(=O)N3CCCC3)s2)cc(OC)c1 | -5 | 1.0 | -16 | 0.5% | -4.1 | -5
CC(=O)Nc1ccc(S(=O)(=O)Nc2ccc(C)c([N+](=O)[O-])c2)cc1 | 9 | 3.6 | 10 | -0.6% | -3.8 | -3
Cc1ccccc1C(O)c1ccncc1 (stereo unspecified) | 9 | -0.2 | 4 | 3.9%[38.3 µM] | -2.1 | -1
c1cc2c(cc1-c1csc(NNC3=NCCCCC3)n1)OCCO2 | 9 | 0.8 | -12 | 3.3% | 2.8 | -11
O=C1CC(N2CCN(S(=O)(=O)c3ccc(Cl)cc3)CC2)C(=O)N1CCc1ccccc1 (stereo unspecified) | 9 | 1.8 | -3 | 0.0%[38.3 µM] | 1.2 | -1
CCc1noc(C)c1C(=O)N(C)CC(=O)Nc1ccc(Br)cc1C | 21 | 0.8 | -8 | -0.9% | -1.9 | 8
Cc1ccc(S(=O)(=O)N(Cc2cc3ccc(C)cc3[nH]c2=O)c2ccccc2)cc1 | nt | nt | -5 | 10% | -1.2 | 0
CCOc1ccccc1C(=O)N[C@H](C(=O)OCC(=O)Nc1nnc(-c2ccccc2)o1)C(C)C | 3 | -1.0 | -1 | -1.7% | 0.0 | -26
CCOc1cccc2sc(=NC(=O)c3ccc(S(=O)(=O)N4CCOCC4)cc3)n(C)c12 | 0&17 | 0.8&0.1 | -6 | -0.1% | -0.2 | 1
COc1ccc(Cl)cc1-c1nc(SCC(=O)NC(C)C)n[nH]1 | 5 | -0.1 | -4 | -0.4% | 2.2 | 1
COc1ccccc1NC(=O)Nc1nc2ccc(S(N)(=O)=O)cc2s1 | 24 | -0.2 | -7 | 10% | -2.1 | 8
O=C(NCCN1CCCCCC1)C1CCN(S(=O)(=O)N2CCOCC2)CC1 | -11 | -0.3 | -2 | -0.6% | 1.4 | -4
COC(=O)c1cc(C(=O)OCC(=O)c2ccc3c(c2)NC(=O)CO3)cc([N+](=O)[O-])c1 | 32 | 0.0 | 13 | 0.6% | 1.3 | 2
CCc1nc(N)nc2c1C(=O)CC(C)(C)C2 | -4 | -0.5 | 6 | -2.4%[38.3 µM] | -0.9 | -1

Screening data from PubChem BioAssay.
